E coli growth: E. coli growth inhibition, primary screen, OD600; OD600 absorbance (no concentration beside the values); actives 0.21% (n = 330,000); Escherichia coli growth, 23 h; active compounds read low; AID 1053175, 2014;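 active = OD600 absorbance below the run mean of sample wells minus 3.6 SD, in any replicate, cut at about 0.56 in these data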;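 also: stock transfer was 300 nL into about 60 µL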
HNF4A DNA FP: change in binding of human HNF4A to DNA, primary screen, biochemical, fluorescence polarization, FITC-DNA. Hepatocyte nuclear factor 4-alpha (Homo sapiens), P41235. 1 h. activity change, % at 10 µM. actives 0.3% (n = 360,000); in the data active = activity change above about 30%, passing the limit was not always enough;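 also: controls were the assay level and a saturating level of protein; the project sought stronger binding though the title names inhibitors; some compounds called inactive have numbers as strong as hits; positive values seem to mean higher polarization but the record does not say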
rRNA inh HTS: reduced GFP signal of wild-type E. coli, primary screen, bacterial rRNA inhibitor project, GFP/RFP fluorescence, OD600, single point. E. coli WT GFP vs humanized-ribosome RFP mutants, 24 h; active compounds read low; DMSO median 0, no signal -100. GFP signal change (wild-type ribosome), % (concentration not given with the values). actives 1.6% (n = 350,000);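 active = significant combined selectivity score with lowered wild-type GFP, culture density cut under 30%, mutant RFP and density less affected; inactive = any of these conditions unmet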; also: one replicate is shown; some compounds called inactive have numbers as strong as hits
FGF22 binding: binders of human FGF22 protein, primary screen, FGF22 synaptogenesis inhibitor project, biophysical, thermal shift, single point; Fibroblast growth factor 22 (Homo sapiens), Q9HCT0; calls only at 9.99 µM; actives 1.5% (n = 340,000); recombinant FGF22 thermal shift, SYPRO orange fluorescence; percent of sucrose octasulfate shift, DMSO zero;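 active = melting point raised past a set limit in the mean and every replicate; three in four hits are not shown here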
Target sequence (Q9HCT0 whole entry, looked up): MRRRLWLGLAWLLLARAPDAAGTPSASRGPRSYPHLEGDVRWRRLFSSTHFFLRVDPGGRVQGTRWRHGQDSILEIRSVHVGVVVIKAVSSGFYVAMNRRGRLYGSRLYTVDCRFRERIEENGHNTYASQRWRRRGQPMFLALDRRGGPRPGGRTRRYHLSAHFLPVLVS
UCH37 inh: inhibitors of human UCH37 deubiquitinase, primary screen, biochemical, Ub-AMC cleavage, fluorescence. Ubiquitin carboxyl-terminal hydrolase isozyme L5 (Homo sapiens), Q9Y5K5. inhibition, % (no concentration beside the values). purified proteasome/UCH37. actives 0.33% (n = 330,000);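 active = mean of two replicates above 20%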;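 also: 0% = compound-free wells with enzyme and 100% = wells lacking proteasome; stock transfer was 100 nL into about 20 µL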
Target sequence (Q9Y5K5 whole entry, looked up): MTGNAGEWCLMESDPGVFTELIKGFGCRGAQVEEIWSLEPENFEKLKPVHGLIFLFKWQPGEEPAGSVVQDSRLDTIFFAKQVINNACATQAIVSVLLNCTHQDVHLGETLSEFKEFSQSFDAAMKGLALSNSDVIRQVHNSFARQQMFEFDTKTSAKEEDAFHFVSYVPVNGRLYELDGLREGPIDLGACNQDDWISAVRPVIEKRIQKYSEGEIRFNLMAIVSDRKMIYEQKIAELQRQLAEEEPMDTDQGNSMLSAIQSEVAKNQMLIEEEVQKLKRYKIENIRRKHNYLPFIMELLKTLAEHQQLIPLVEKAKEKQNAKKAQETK
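Schedule: 30 min plus 25 min, room temperature / Material: human UCH37 within purified proteasomes / Technique: AMC fluorescence intensity at 355/460 nm / Buffer or medium: pH 7.4 Tris-HCl (50 mM) with ovalbumin, ATP-MgCl2, DTT / Controls: wells without proteasome as full block, compound-free enzyme plus substrate as uninhibited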
ALR H2O2 inh: inhibitors of human ALR sulfhydryl oxidase, primary screen, biochemical, H2O2 detection, HRP-luminol luminescence, single point; actives 3.8% (n = 290,000); purified ALR, DTT oxidation; FAD-linked sulfhydryl oxidase ALR (Homo sapiens), P55789; inhibition, % (no concentration beside the values);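 active = mean and each replicate at 75% or more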;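 also: stock transfer was 7.5 nL into about 7.5 µL; 0% = neutral wells and 100% = wells with inactivated enzyme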
Target sequence (P55789 whole entry, looked up): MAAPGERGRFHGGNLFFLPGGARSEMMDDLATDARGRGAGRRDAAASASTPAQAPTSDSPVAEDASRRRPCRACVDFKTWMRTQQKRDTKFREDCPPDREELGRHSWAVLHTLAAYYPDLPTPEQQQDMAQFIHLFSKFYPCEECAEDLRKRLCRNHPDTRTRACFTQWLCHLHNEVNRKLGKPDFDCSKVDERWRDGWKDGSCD
Beta2AR agonist: beta2AR agonists driving receptor internalization, primary screen, cell-based, FAP fluorogen, flow cytometry. Am2.2-beta2AR cells; reference of the scale not given here. response, % (no concentration beside the values). actives 0.43% (n = 340,000). Beta-2 adrenergic receptor (Homo sapiens), P07550;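 active = response above a set limit, near 3 SD of response in nonfluorescent compounds, cut at about 42% in these data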;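 also: stock transfer was 100 nL into about 11 µL; a reference agonist was the positive control; negative values mostly stem from fluorescent compounds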
rRNA inh HTS OD600: further read-out of rRNA inh HTS, marked with its call; OD600 change, %; measured here: OD600 growth;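 optical density of the mix in the first replicate; 0 = DMSO median and -100 = no signal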
rRNA inh HTS RFP: recorded beside rRNA inh HTS, whose call it bears; RFP signal change, %; measured here: RFP humanized mutant strains;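 first replicate; 0 = DMSO median and -100 = no signal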
The depositor's hits bear a star; i = inactive; nt = not tested or not shown; & = joins results of further samples.

Compound,E coli growth,HNF4A DNA FP,rRNA inh HTS,rRNA inh HTS OD600,rRNA inh HTS RFP,FGF22 binding,UCH37 inh,ALR H2O2 inh,Beta2AR agonist
COc1ccccc1C(O)c1ncc(-c2ccc(Cl)cc2)[nH]1 (configuration not stated),nt,-0.6,-4,-9,0.4,i,nt,nt,nt
O=C(N/N=C/c1ccc2c(c1)OCO2)c1ccc2ccccc2n1,nt,4.3,13,6,1.0,i,nt,-5,1
COC(=O)CN1C(=O)[C@H]2[C@@H](c3ccc(C)o3)N3C(=O)CN(Cc4ccccn4)C(=O)[C@@]3(Cc3ccccc3)[C@H]2C1=O,0.82,1.4,-2,14,-10,i,-2.6,9,0
Cc1oc(-c2ccccc2Cl)nc1CS(=O)(=O)CC(=O)NC(C)c1ccccc1 (configuration not stated),0.78,-0.1,-2,-37,-5.6,i,6.5,6,0
CCOC(=O)c1nnn(CC(=O)Nc2ccccc2)c1C(=O)OCC,0.69,0.8,6,5,2.1,i,3.2,1,3
CCOc1ccc(S(=O)(=O)N2CCC(C(=O)N3CCN(Cc4ccccc4)CC3)CC2)cc1,0.74,7.3,4,6,-1.9,i,1.5,-2,-1
Oc1ccc(-c2nccs2)cc1,0.67,-2.8,0,-1,-2.0,i,-23,nt,-3
CCCCC(=O)N(c1ccc(C)c(C)c1)C1C=CS(=O)(=O)C1 (configuration not stated),0.68,1.1,9,7,7.4,nt,2.1,8,9
CCn1cc(CN2CCC(C(=O)Nc3ccc(Oc4cccnc4)cc3)CC2)c(C)n1,0.71,0.9,6,12,2.1,i,0.9,-11,2
COc1ccc(C)cc1NC(=O)C(=O)NNC(=O)COc1ccc(Cl)cc1,0.66,-0.9,29,-6,-1.0,i,-0.4,nt,-7
C#CCOCCOCCOCCNc1nc(N2CCN(C(=O)[C@H](CCCCN)n3cc(CCC(=O)O)nn3)CC2)nc(N2CCN(C(=O)[C@H](Cc3ccc(O)cc3)n3cc(CCO)nn3)CC2)n1,nt,-2.8,6,7,-3.6,i,nt,nt,-13
Cc1nn(Cc2ccccc2)c(N)c1C#N,0.75,-1.9,nt,nt,nt,nt,2.3,-7,4
Cc1cc(=O)c2c(o1)C(=O)c1occc1C2=O,nt,-8.2,7,3,29,i,nt,nt,-7
N#Cc1nnn2c1nc(N)c1c(Cl)cccc12,nt,4.2,11,13,-0.9,i,nt,nt,nt
O=C(N=C1SCC(=O)N1c1ccccc1Cl)c1ccccc1,0.68,-0.4,-21,-13,47,nt,1.2,nt,-3
CC(=O)N(Cc1cccnc1)c1cccc(-c2nc3ccccc3s2)c1,0.7,0.5,-20,-23,1.0,i,-0.5,nt,-11
CC(C)(C)C1=Nn2c(nnc2-c2ccco2)SC1,0.67,-0.6,nt,nt,nt,nt,1.4,nt,-2
Cc1ccc(OCC2Cn3c(nc4c3c(=O)[nH]c(=O)n4C)O2)cc1C (configuration not stated),0.7,4.0,19,16,2.0,i,2.3,-3,-2
N#CC1=C(O)CCCn2c1nc1ccccc1c2=O,0.69,2.1,nt,nt,nt,nt,0.0,2,-1
CCCCCCn1c(N2CCC(C(N)=O)CC2)nc2c1c(=O)[nH]c(=O)n2C,0.78,0.8,nt,nt,nt,nt,-1.6,-7,-1

Next compounds.
Compound,E coli growth,HNF4A DNA FP,rRNA inh HTS,rRNA inh HTS OD600,rRNA inh HTS RFP,FGF22 binding,UCH37 inh,ALR H2O2 inh,Beta2AR agonist
O=C(Nc1cccc(C(F)(F)F)c1)c1cccnn1,0.63,1.4,0,9,0.5,i,-0.4,-17,-3
CCOC(=O)c1sc2cc([N+](=O)[O-])cc(SCC(C)C)c2c1N,0.79,25,nt,nt,nt,nt,1.9,1,-166
CCOC(=O)c1c(NC(=O)c2cccs2)sc(CC)c1-c1cccs1,0.66,-1.5,nt,nt,nt,nt,-77,-5,9
CCC(C)(C)NC(=O)C(OC(=O)c1cc2sccc2n1C)c1ccc(OC)cc1 (configuration not stated),0.71,-2.0,nt,nt,nt,nt,3.3,-3,-2
C[C@@H]1CN([C@@H](C)CO)S(=O)(=O)c2ccc(C#CC(C)(C)O)cc2O[C@H]1CN(C)C(=O)C1CCCCC1,nt,-1.9,4&1,-19&9,-2.9&-1.8,i,nt,nt,nt
CC(OC(=O)Cc1coc2ccc3ccccc3c12)C(=O)Nc1ncc(Cl)cc1Cl (configuration not stated),0.66,4.8,nt,nt,nt,nt,-7.2,-16,-2
CCCCSC(=O)Nc1ccccc1,0.71,-0.2,nt,nt,nt,nt,0.9,-12,4
CCCCNC(=S)NNC(=O)c1cccnc1,0.72,4.8,nt,nt,nt,nt,0.9,nt,6
CN1C(=O)CC2(CC(=O)N(Cc3ccccc3)C2)C1=O (configuration not stated),0.71,0.5,nt,nt,nt,nt,0.2,-23,2
Cc1c(NC(=O)C2(c3ccccc3)CCOCC2)c(=O)n(-c2ccccc2)n1C,0.69,-2.2,nt,nt,nt,nt,-1.1,-3,-6
CCN(CCO)Cc1csc2ccccc12,0.64,-3.1,8,7,-0.4,i,-0.2,-17,6
Cc1cc(C)n2nc(C(=O)OCC(=O)N(CCC#N)c3ccc(F)cc3)nc2n1,0.68,2.9,11,13,0.7,i,4.9,nt,-1
CCCC(=O)Nc1ccc(NC(=O)CCc2ccccc2)cn1,0.69,-0.4,nt,nt,nt,nt,2.0,-7,-23
COc1cccc(-c2cnc(C(O)c3ccc(Cl)c(F)c3)[nH]2)c1 (configuration not stated),nt,-1.8,4,-27,6.0,i,nt,nt,nt
CC(C)(C)C(=O)[C@@H]1[C@@H]2C(=O)N(c3ccc4c(c3)OCCO4)C(=O)[C@@H]2C2c3ccccc3C=CN21 (some centres not stated),0.76,1.3,nt,nt,nt,nt,12,65,14
O=C(CN1CCN(C(=O)C2CCN(C(=O)/C=C/c3ccccc3)CC2)CC1)Nc1ccc(F)cc1,0.69,0.9,3,1,0.2,i,0.5,nt,2
CC(C)[C@H](NC(=O)OCc1ccccc1)C(=O)OCc1ccccc1,0.68,0.5,1,-7,0.9,i,0.3,-2,5
CCCCNC(=O)C(NC(=O)c1cccnc1)C(=O)c1ccccc1 (configuration not stated),nt,1.5,8,18,3.2,i,nt,nt,nt
COCCn1nnnc1C(c1cccs1)N1CCN2CCCC2C1 (configuration not stated),0.68,2.6,10,17,-5.6,i,3.1,1,2
Cc1ccc(-c2cc(Cc3cccs3)c(=O)[nH]n2)cc1,0.65,-2.0,0,-25,-0.5,i,3.7,-3,10

(list continues)
Compound,E coli growth,HNF4A DNA FP,rRNA inh HTS,rRNA inh HTS OD600,rRNA inh HTS RFP,FGF22 binding,UCH37 inh,ALR H2O2 inh,Beta2AR agonist
C=CCN(CC=C)C(=O)Nc1cc(Cl)ccc1OC,0.73,0.3,nt,nt,nt,nt,5.7,-4,-18
Cc1csc(CNC(=O)C2CCC(=O)N(CCc3cccc(F)c3)C2)n1 (configuration not stated),0.73,-0.5,14,13,1.7,i,-0.1,-2,3
CCCC(C(=O)NC1CCCCC1)N(Cc1ccco1)C(=O)CNS(=O)(=O)c1ccccc1 (configuration not stated),0.77,1.3,nt,nt,nt,nt,4.4,-8,-1
Cc1ccc(-c2nnn(CC(=O)N(Cc3cccs3)C(C(=O)NCC3CCCO3)c3ccco3)n2)o1 (configuration not stated),0.7,0.4,nt,nt,nt,nt,0.9,-18,7
CCn1c(SCC(=O)c2ccccc2)nnc1-c1cccs1,0.73,-2.6,nt,nt,nt,nt,-1.1,nt,-12
N#Cc1nc(COc2cccc(Cl)c2)oc1NCc1ccco1,0.71,0.1,-46,-54,-8.3,i,4.6,7,-4
CC(CCc1ccccc1)NC(=O)CNC(=O)COc1ccccc1 (configuration not stated),0.71,-0.3,-14*,6.2*,3.6*,i,-2.6,-20,0
CNC(=S)NNC(=O)c1cccs1,0.7,-3.6,-1,8,-0.5,i,5.3,47,-3
CC(NCCc1ccc(O)cc1)C(O)c1ccc(O)cc1 (configuration not stated),0.68&0.66&0.67,0.2,19,19,2.1,i,0.4,nt,-5
COc1cc(/C=N/Nc2nc(=O)[nH]nc2C)cc([N+](=O)[O-])c1O,nt,-0.9,-5,0,-2.6,i,nt,20,1
CC(=O)Nc1ccc(S(=O)(=O)NNC(=O)COc2ccc(C(C)(C)C)cc2)cc1,0.8,2.3,nt,nt,nt,nt,4.9,97*,0
COc1ccc(C(=O)NCC(=O)N/N=C/c2ccc([N+](=O)[O-])s2)cc1OC,nt,-0.3,-52,-71,-13,i,nt,-30,1
CCOC(=O)CSc1nnc(Cc2ccccc2)n1Cc1ccco1,0.69,-0.8,nt,nt,nt,nt,-2.8,-8,-2
CCc1nc2ccc(C(=O)Nc3nnc(C)s3)cc2nc1CC,0.65,-0.1,8,-11,2.2,i,1.9,-10,-6
Cc1cc(C)cc(C(=O)Nc2nnc(SCC(=O)NCC3CCCO3)s2)c1 (configuration not stated),0.73,-3.1,2,6,1.2,i,3.6,-3,8
COC(=O)c1cnn(-c2nc3c(C)cccc3s2)c1C,0.68,-2.3,nt,nt,nt,nt,-1.4,-3,0
CC(C)C[C@H]1CN=C(Nc2ccccc2)N1CC1CCC(C(C)(C)C)CC1 (some centres not stated),nt,1.1,nt,nt,nt,nt,4.2,-67,33
COc1ccc(Cl)cc1S(=O)(=O)N(C)CC(=O)N1CCOCC1,0.67,-0.3,17,8,0.4,i,4.6,0,-4
COc1ccc(S(=O)(=O)Nc2cccc3c2O[C@H](CN(C)C(=O)Nc2ccc4c(c2)OCO4)[C@@H](C)CN([C@H](C)CO)C3=O)cc1,0.74,3.8,5&6,3&0,0.8&-1.1,i,-0.7,-10,6
O=C(O)CNC(=S)N(Cc1ccccc1)Cc1cccs1,0.67,-2.5,-11,-4,-4.5,i,-0.6,3,-7

(listing goes on)
Compound,E coli growth,HNF4A DNA FP,rRNA inh HTS,rRNA inh HTS OD600,rRNA inh HTS RFP,FGF22 binding,UCH37 inh,ALR H2O2 inh,Beta2AR agonist
COc1cc(C(=O)N(Cc2cc3cc(C)ccc3[nH]c2=O)CC2CCCO2)cc(OC)c1OC (configuration not stated),0.74,0.0,nt,nt,nt,nt,-1.4,-1,0
COC(=O)Cc1c(C)c2ccc(OCC(=O)NC3CCS(=O)(=O)C3)cc2oc1=O (configuration not stated),0.64,-4.7,4,2,-1.4,i,-302,-2,13
NC(=O)N1CCN(C(=O)c2ccco2)CC1,0.71,0.1,nt,nt,nt,nt,4.4,48,2
Cc1ccccc1NP1(=O)OCCCN1Cc1ccccc1Cl (configuration not stated),nt,1.0,-19,-34,-2.6,i,nt,nt,-2
O=C(NN=C1CCCCCC1)c1c[nH]c2ccccc12,0.69,-1.1,nt,nt,nt,nt,0.0,0,3
O=C(NCCO)C(=O)NCC1CCCN1S(=O)(=O)c1cccs1 (configuration not stated),0.66,-1.0,12,19,-1.4,i,1.3,0,-3
Cc1cc(C)n2c(=O)[nH]nc2c1,0.7,-1.6,11,14,-0.4,i,-42,nt,0

2 compounds from above, reduced to rRNA inh HTS OD600, rRNA inh HTS RFP and E coli growth.
Structure | rRNA inh HTS OD600 | rRNA inh HTS RFP | E coli growth
CC(CCc1ccccc1)NC(=O)CNC(=O)COc1ccccc1 (configuration not stated) | 6.2* | 3.6* | 0.71
CNC(=S)NNC(=O)c1cccs1 | 8 | -0.5 | 0.7

These rows are one share of the data. The share of hits here may be higher or lower than overall.
